HIV Env fusion – inhibitors of HIV Env-mediated cell fusion | inhibition, % at 12.3 µM | actives 1.1% (n = 360,000) | HeLa-JRFL Env/CEM21 cell fusion, luciferase;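 active means mean replicate inhibition score of at least 50 and every replicate individually at or above 50; inconclusive means only one of the two criteria met; inactive means mean below 50 and not all replicates reaching 50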;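 further: 0% = plate neutral controls and 100% = maraviroc near 300 nM; one replicate is shown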
* = called active by the depositor; ? = inconclusive; [ ] = dose if it differs, or a comment. These rows are one share of the data. The share of hits here may be higher or lower than overall.

HIV Env fusion | SMILES
-21.1 | COC(=O)C1=C(C)N(Cc2cccc(C(F)(F)F)c2)C(=NCc2cccc(C(F)(F)F)c2)NC1c1ccccc1C(F)(F)F (stereo unspecified)
-10.2 | Oc1ccccc1C=NC(N=Cc1ccccc1O)c1ccccc1O (stereo unspecified)
6.6[16.7 µM] | COc1ccc(CN2C[C@@H](C)[C@@H](OC)CN(C)C(=O)c3ccc(NC(C)=O)cc3OC[C@H]2C)cc1
3.8[16.7 µM] | Cc1ccc(S(=O)(=O)Nc2ccc3c(c2)C(=O)N([C@@H](C)CO)C[C@H](C)[C@H](CN(C)C)OCCCC[C@H](C)O3)cc1
1.6 | COC(=O)N1Cc2ccnnc2CC1c1ccccc1-c1ccc(F)cc1 (stereo unspecified)
-3.8[16.7 µM] | C[C@@H]1CN([C@H](C)CO)C(=O)c2cc(C#CC3CC3)cnc2O[C@@H]1CN(C)C(=O)c1ccncc1
-7.7[16.7 µM] | COc1ccc2c3c([nH]c2c1)[C@H](CO)N(C(=O)CN(C)C)CC31CN(CC2CCOCC2)C1
19.1 | COC(=O)C1=C(C)N(Cc2ccccc2)C(=S)NC1c1ccc(Cl)cc1 (stereo unspecified)
-13.5[16.7 µM] | COc1ccc(C(=O)Nc2ccc3c(c2)C(=O)N(C)C[C@@H](OC)[C@@H](C)CN(C)[C@H](C)CO3)cc1
? | O=C(NCc1ccccc1)[C@H]1CCCN1C(=O)[C@H]1CCCN1C(=O)c1ccc(F)c(F)c1
14.6[16.7 µM] | CO[C@H]1CC[C@@H]2CCOc3ccc(C#N)cc3C(=O)N(C)C[C@H](c3ccccc3)CC(=O)N(C)C[C@@H]1O2
-10.2[16.7 µM] | COc1ccc(CNC(=O)N(C)C[C@H]2OCc3ccccc3-c3ccccc3C(=O)N([C@H](C)CO)C[C@H]2C)cc1
13.9[16.7 µM] | C[C@H](NC(=O)[C@H]1[C@H](CO)[C@H]2Cn3c(cccc3=O)[C@H]2N1S(C)(=O)=O)c1ccccc1
-3.4 | CCCC(=O)OC[C@H]1CN([C@H](C)c2ccccc2)S(=O)(=O)c2c(F)cccc2O1
-34.6[16.7 µM] | O=C(C[C@@H]1C[C@H]2c3cc(NC(=O)c4cccnc4)ccc3O[C@H]2[C@H](CO)O1)NCc1cc(F)ccc1F
8.3[16.7 µM] | C[C@@H]1CN([C@@H](C)CO)C(=O)c2ccccc2-c2ccccc2CO[C@H]1CN(C)C(=O)[C@H](Cc1ccccc1)N(C)C
-33.8[16.7 µM] | C[C@H]1CN([C@@H](C)CO)C(=O)Cc2cc(NC(=O)C3CC3)ccc2O[C@H]1CN(C)Cc1ccncc1
11.2[16.7 µM] | C[C@H](CO)N1C[C@H](C)[C@H](CN(C)S(=O)(=O)c2ccccc2)OCCCC[C@H](C)Oc2ccc(N(C)C)cc2C1=O
-14.9[16.7 µM] | COc1ccc2c3c([nH]c2c1)[C@@H](CO)N(C(=O)NC(C)C)CC31CN(C(=O)NC(C)C)C1
-4.4[16.7 µM] | O=C(C[C@@H]1C[C@H]2c3cc(NC(=O)C4CCOCC4)ccc3O[C@H]2[C@@H](CO)O1)NCc1cccnc1
? | COc1ccc(S(=O)(=O)Nc2ccc3c(c2)C(=O)N([C@H](C)CO)C[C@@H](C)[C@H](CN(C)C)OCCCC[C@H](C)O3)cc1
-7.1[16.7 µM] | C[C@H]1CN([C@@H](C)CO)C(=O)Cc2cc(NC(=O)Nc3ccccc3)ccc2O[C@@H]1CN(C)C
2.2[16.7 µM] | CCCN1C[C@H](C)[C@H](OC)CN(C)C(=O)c2ccc(NC(=O)c3ccccc3F)cc2OC[C@H]1C
0.7[16.7 µM] | CN1C(=O)c2cc(NC(=O)c3ccc(Cl)cc3)ccc2OC[C@@H]2O[C@H](CC(=O)O)CC[C@@H]21
-11.4[16.7 µM] | Cc1noc(C)c1NC(=O)Nc1ccc2c(c1)C(=O)N(C)[C@H]1CC[C@@H](CC(=O)NCc3ccc(Cl)cc3)O[C@H]1CO2
-20.7 | O=C(N[C@H](Cc1ccccc1)C(=O)NCc1ccc2c(c1)OCO2)[C@H]1O[C@@H](n2ccc(=O)[nH]c2=O)[C@H](O)[C@@H]1O
0.3[16.7 µM] | CN1C(=O)c2cc(NC(=O)C3CCOCC3)ccc2OC[C@@H]2O[C@H](CC(=O)NCC3CCCCC3)CC[C@H]21
12.8[16.7 µM] | COc1ccc(NC(=O)N[C@@H]2CC[C@H](CC(=O)NC3CCC3)O[C@@H]2CO)cc1
-2.5[16.7 µM] | CC(C)NC(=O)N(C)C[C@H]1Oc2ccc(NS(=O)(=O)c3ccccc3)cc2CC(=O)N([C@@H](C)CO)C[C@@H]1C
33.9[16.7 µM] | CO[C@@H]1CN(C)C(=O)c2cc(NS(=O)(=O)c3cccc(F)c3)ccc2OC[C@H](C)NC[C@H]1C

An excerpt from above in order of their number in HIV Env fusion, ascending.
Compound	HIV Env fusion
COC(=O)C1=C(C)N(Cc2cccc(C(F)(F)F)c2)C(=NCc2cccc(C(F)(F)F)c2)NC1c1ccccc1C(F)(F)F (stereo unspecified)	-21.1
O=C(N[C@H](Cc1ccccc1)C(=O)NCc1ccc2c(c1)OCO2)[C@H]1O[C@@H](n2ccc(=O)[nH]c2=O)[C@H](O)[C@@H]1O	-20.7
Oc1ccccc1C=NC(N=Cc1ccccc1O)c1ccccc1O (stereo unspecified)	-10.2
CCCC(=O)OC[C@H]1CN([C@H](C)c2ccccc2)S(=O)(=O)c2c(F)cccc2O1	-3.4
COC(=O)C1=C(C)N(Cc2ccccc2)C(=S)NC1c1ccc(Cl)cc1 (stereo unspecified)	19.1

Later entries.
HIV Env fusion | SMILES
-11.3 | COC(=O)c1cc(S(=O)(=O)NCC2CCN(C(=O)C(=O)c3cc4ccccc4o3)CC2)cs1
17.3[16.7 µM] | COc1ccc(CN(C)C[C@@H]2OCCCC[C@H](C)Oc3ccc(NC(=O)C4CCCCC4)cc3C(=O)N([C@@H](C)CO)C[C@H]2C)cc1
-6.8[16.7 µM] | CN1C(=O)c2cc(NC(=O)c3cccs3)ccc2OC[C@H]2O[C@H](CC(=O)N3CCCCC3)CC[C@H]21
-9.2[16.7 µM] | C/C=C/c1ccccc1[C@@H]1[C@@H](C#N)N(C(=O)c2cccnc2)[C@@H]1CO
-15.7 | COC(=O)Cc1nnn2c1[C@H](C)[C@@H](OC)c1cccc(Cl)c1-2
44.7[16.7 µM] | O=C(C1CCCC1)N1CC[C@@H]2[C@H](CO)Nc3ccc(C4=CCCCC4)cc3[C@@H]21
7.3[16.7 µM] | COc1cccc(-c2cnc3c(c2)C(=O)N([C@H](C)CO)C[C@H](C)[C@H](CN(C)C(=O)NC(C)C)O3)c1
1.3[16.7 µM] | CO[C@H]1CN(C)C(=O)c2cc(C#N)ccc2OCC[C@@H]2CC[C@@H](OC)[C@@H](CN(C)C(=O)[C@H]1C)O2
24.6[16.7 µM] | COCCNC(=O)C[C@H]1C[C@@H]2c3cc(NC(=O)Nc4ccc(C(F)(F)F)cc4)ccc3O[C@@H]2[C@@H](CO)O1
17.9[16.7 µM] | Cc1noc(C)c1S(=O)(=O)Nc1ccc2c(c1)C(=O)N([C@@H](C)CO)C[C@H](C)[C@H](CN(C)Cc1ccc(C(F)(F)F)cc1)OCCCC[C@@H](C)O2
-9.2[16.7 µM] | Cc1noc(C)c1NC(=O)N(C)C[C@@H]1Oc2ccc(NC(=O)Cc3ccccc3)cc2C(=O)N([C@@H](C)CO)C[C@H]1C
-6.7[16.7 µM] | CCCNC(=O)N1C[C@H](O)COC[C@@H]2O[C@H](CC(=O)NCc3ccncn3)CC[C@H]21
-14.8 | COC(=O)C1=C(C)N(C)C(=NCc2ccc3c(c2)OCO3)NC1c1cccc(F)c1 (stereo unspecified)
10.6 | CCOC(=O)N1CCN(C(=O)C[C@H]2C[C@@]3(C(=O)OC)C(=C[C@H](C4CCCC4)O[C@@H]3C)N(Cc3ccccc3)C2=O)CC1
-54.2[16.7 µM] | C[C@H]1CN([C@@H](C)CO)C(=O)c2ccccc2-c2ccccc2CO[C@H]1CN(C)C(=O)Nc1ccccc1C(F)(F)F
17.9[16.7 µM] | Cc1ccc(S(=O)(=O)Nc2ccc3c(c2)C(=O)N([C@@H](C)CO)C[C@@H](C)[C@H](CN(C)Cc2ccc(Oc4ccccc4)cc2)O3)cc1
1.3 | C=CCCN1[C@@H](Cc2ccccc2)COc2ccccc2S1(=O)=O
-43.8 | C[C@H](O)[C@@H]1C(=O)N2CCc3c([nH]c4c(-c5ccccc5)cccc34)[C@@H]2C[C@@H]1N(C)C(=O)/C=C/c1ccccc1
11.7[16.7 µM] | O=C(C[C@H]1C[C@@H]2c3cc(NC(=O)c4ccc5c(c4)OCO5)ccc3O[C@@H]2[C@@H](CO)O1)NCCc1ccccc1
64.1*[16.7 µM] | COc1ccc(NC(=O)Nc2ccc3c(c2)C(=O)N([C@H](C)CO)C[C@H](C)[C@H](CN(C)CC2CC2)OCCCC[C@H](C)O3)cc1
10.9[16.7 µM] | Cc1ccc(S(=O)(=O)N(C)C[C@@H]2OCCCC[C@@H](C)Oc3ccc(N(C)C)cc3C(=O)N([C@@H](C)CO)C[C@@H]2C)cc1
13.0[16.7 µM] | COc1ccc(-c2cccc(-c3nc(C(=O)N(C)C)cc4c3[C@@H](CCO)N([S@](=O)C(C)(C)C)C4)c2)cc1
-21.4[16.7 µM] | CN(C)CCCNC(=O)C[C@@H]1CC[C@H]2[C@@H](COc3ccc(NS(C)(=O)=O)cc3C(=O)N2C)O1
-21.0[16.7 µM] | CO[C@@H]1CC[C@H]2CCOc3c(C#N)cccc3C(=O)N(C)C[C@@H](C)C(=O)N(C)C[C@@H]1O2
? | Cc1noc(C)c1NC(=O)N(C)C[C@H]1OCc2ccccc2-c2c(n(C)c3ccccc23)C(=O)N([C@@H](C)CO)C[C@@H]1C
55.1*[16.7 µM] | COc1ccc2c3c(n(C)c2c1)[C@H](CO)N(C(=O)C1CCOCC1)CC31CCN(Cc2cccc(F)c2)CC1
8.7[16.7 µM] | O=C(C[C@@H]1CC[C@H]2[C@@H](COC[C@@H](O)CN2Cc2cccc(-c3ccncc3)c2)O1)N1CCOCC1
-6.6[16.7 µM] | CNC[C@@H]1OCCCC[C@@H](C)Oc2ccc(NS(C)(=O)=O)cc2C(=O)N([C@@H](C)CO)C[C@H]1C
0.6[16.7 µM] | COc1ccc(CN(C)C[C@@H]2Oc3ccc(NC(=O)Cc4ccccc4)cc3C(=O)N([C@@H](C)CO)C[C@H]2C)cc1
? | COC(=O)c1cc2c(c3c4cc(F)ccc4n(S(=O)(=O)c4ccc(C)cc4)c13)C(=O)N(Cc1ccccc1)C2

Reprinted at random: 2 compounds from above
HIV Env fusion | SMILES
-11.3 | COC(=O)c1cc(S(=O)(=O)NCC2CCN(C(=O)C(=O)c3cc4ccccc4o3)CC2)cs1
-21.0[16.7 µM] | CO[C@@H]1CC[C@H]2CCOc3c(C#N)cccc3C(=O)N(C)C[C@@H](C)C(=O)N(C)C[C@@H]1O2

Following part.
HIV Env fusion | SMILES
9.9[16.7 µM] | CNC[C@H]1OCc2cn(nn2)CCCC(=O)N([C@H](C)CO)C[C@@H]1C
-4.6[16.7 µM] | CCCNC(=O)N1[C@@H]2Cn3c(cccc3=O)[C@H]1[C@@H](C(=O)N1CCC(Cc3ccccc3)CC1)[C@@H]2CO
14.7[16.7 µM] | CCCNC(=O)Nc1ccc2c(c1)C(=O)N(C)C[C@@H](OC)[C@@H](C)CN(Cc1ccccn1)[C@H](C)CO2
-10.1[16.7 µM] | Cc1noc(C)c1S(=O)(=O)Nc1ccc2c(c1)C(=O)N([C@H](C)CO)C[C@@H](C)[C@@H](CN(C)S(=O)(=O)c1ccc(F)cc1)O2
0.9 | O=S(=O)(c1ccc(F)cc1)N1CCCc2nc(-c3ccc(F)cc3)ccc21
27.1 | COCCN1Cc2cc(C(=O)OC)c3c(c2C1=O)c1cc(F)ccc1n3S(=O)(=O)c1cccc(C)c1
8.5[16.7 µM] | COc1ccccc1S(=O)(=O)N[C@H]1C=C[C@H](CC(=O)N2CCCCC2)O[C@@H]1CO
-15.4[16.7 µM] | C[C@H](CO)N1C[C@H](C)[C@@H](CN(C)CC2CC2)OCCCC[C@H](C)Oc2ccc(NC(=O)c3ccccc3)cc2C1=O
-4.1 | COC(=O)c1cc2c(c3c4cc(F)ccc4n(S(=O)(=O)c4ccc(C)cc4)c13)C(=O)N(Cc1ccc(N(C)C)cc1)C2
11.7[16.7 µM] | CCCNC(=O)Nc1ccc2c(c1)C(=O)N(C)C[C@@H](OC)[C@@H](C)CN(C(=O)C1CCCCC1)[C@H](C)CO2
-0.5[16.7 µM] | CO[C@@H]1CN(C)C(=O)c2cc(NS(=O)(=O)c3cccc(F)c3)ccc2OC[C@H](C)N(C(=O)Cc2cccnc2)C[C@H]1C
-0.1[16.7 µM] | CO[C@H]1CN(C)C(=O)c2cc(NS(=O)(=O)c3cn(C)cn3)ccc2OC[C@H](C)N(CC2CC2)C[C@H]1C
13.9[16.7 µM] | CO[C@@H]1CC[C@@H]2CCOc3ccc(C#N)cc3C(=O)N(C)CCCC(=O)N(C)C[C@H]1O2
-2.2[16.7 µM] | C[C@@H]1CN([C@H](C)CO)C(=O)c2cc(NC(=O)CCCN(C)C)ccc2O[C@@H]1CN(C)Cc1ccc(C(=O)O)cc1
-33.8[16.7 µM] | CO[C@@H]1CN(C)C(=O)c2ccc(NC(=O)Nc3ccc4c(c3)OCO4)cc2OC[C@@H](C)N(C)C[C@H]1C
-3.8[16.7 µM] | C[C@@H]1CCCCO[C@@H](CN(C)C)[C@H](C)CN([C@@H](C)CO)C(=O)c2cc(NC(=O)Cc3ccccc3)ccc2O1
-13.8[16.7 µM] | Cc1noc(C)c1NC(=O)Nc1ccc2c(c1)C(=O)N([C@@H](C)CO)C[C@@H](C)[C@@H](CN(C)CC1CCCCC1)O2
-9.8[16.7 µM] | CC(C)NC(=O)Nc1ccc2c(c1)C(=O)N([C@H](C)CO)C[C@@H](C)[C@H](CN(C)C(=O)c1ccncc1)OCCCC[C@@H](C)O2
-9.7[16.7 µM] | C[C@@H]1CN([C@@H](C)CO)C(=O)c2cc(C#CCN(C)C)cnc2O[C@H]1CN(C)C(=O)Cc1ccccc1

Bioassay records: PubChem, Broad Institute
